# Assay outcomes from PubChem.
# eIF4H FP inh: inhibitors of RNA binding by human eIF4H | Q15056 | eIF4H fluorescence polarization binding assay | inhibition, % at 35 µM | 0.94% of 290,000 active | AID 2012;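 active = 50% or more with normal probe brightness, or confirmed in later tests; about a fifth of its hits are not listed in these tables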;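 also: calls also rest on retests at 20 µM and on dose response follow-up; 0% = protein and probe with vehicle and 100% = probe without protein; strong numbers were not always called active; many hits fall short of the cut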
# Yeast UUG start: modulators of start codon recognition fidelity in yeast | S. cerevisiae UUG-firefly luciferase reporter, luminescence/redox ratio | activity score, % at 18.7 µM | 0.13% of 350,000 active | AID 602363;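 active = replicate mean at a twofold rise or more, about +100% in these data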;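 also: firefly luciferase made from a UUG start codon reports start codon fidelity; reporter light over untreated wells divided by growth signal over untreated wells; some hits fall short of that in this replicate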
# PABP polyA inh: blocks human PABP binding to poly(A) RNA; P11940; fluorescence polarization; AID 2014; 1% of 290,000 active; inhibition, % at 35 µM;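 active = 50% or more with normal probe brightness, or confirmed in later tests; about a fifth of its hits are not listed in these tables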;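 also: calls also rest on retests at 20 µM and on dose response follow-up; controls were probe without protein and protein plus probe with vehicle; some compounds called inactive have numbers as strong as hits; many hits fall short of the cut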
# Target sequence (P11940 whole entry, looked up): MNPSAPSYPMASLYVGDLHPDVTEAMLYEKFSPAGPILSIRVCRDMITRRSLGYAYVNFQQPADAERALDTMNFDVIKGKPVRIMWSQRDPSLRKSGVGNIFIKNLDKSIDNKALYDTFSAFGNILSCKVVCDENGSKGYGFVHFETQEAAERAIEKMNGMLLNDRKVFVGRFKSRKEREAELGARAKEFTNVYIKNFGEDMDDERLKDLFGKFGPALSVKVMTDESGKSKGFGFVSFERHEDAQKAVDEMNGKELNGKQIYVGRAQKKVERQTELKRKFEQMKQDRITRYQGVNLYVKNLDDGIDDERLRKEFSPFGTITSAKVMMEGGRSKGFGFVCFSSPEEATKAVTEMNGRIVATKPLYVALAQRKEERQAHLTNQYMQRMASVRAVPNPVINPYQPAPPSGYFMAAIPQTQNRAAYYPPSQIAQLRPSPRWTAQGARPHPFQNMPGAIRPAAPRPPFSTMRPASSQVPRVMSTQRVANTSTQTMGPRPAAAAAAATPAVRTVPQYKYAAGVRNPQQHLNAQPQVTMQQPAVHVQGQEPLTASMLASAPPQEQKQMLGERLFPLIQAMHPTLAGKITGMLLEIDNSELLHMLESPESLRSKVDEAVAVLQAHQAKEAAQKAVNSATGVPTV
# HIV Env fusion: inhibitors of HIV Env-mediated cell fusion; HeLa-JRFL Env/CEM21 cell fusion, luciferase; inhibition, % at 12.3 µM; 1.1% of 360,000 active;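 active = mean replicate inhibition score of at least 50 and every replicate individually at or above 50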;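 also: 0% = plate neutral controls and 100% = maraviroc near 300 nM; one replicate is shown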
# Rce1 inh: yeast Ras-converting enzyme inhibition; calls only; yeast membranes, quenched prenylated peptide cleavage fluorescence; 0.27% of 290,000 active;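 active = fall in fluorescence gain of 50% or more versus controls, with final raw signal at or below 3038400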;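 also: plate controls were neutral control wells for no effect and wells lacking membranes for full effect; tested at 10 µM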
# MT1-MMP act inh: blocks activation of human MT1-MMP. P50281. HT1080 RFP-PRO-GFP cells, GFP/RFP ratio fluorescence, overnight; percent of plate control window, DMSO zero. GFP/RFP ratio change, % at 20 µM. 0.061% of 360,000 active. AID 651647;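 active = GFP/RFP ratio change of at least 30% with cell ATP level not reduced by more than half and red fluorescence within 50% of control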; also: strong numbers were not always called active
#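 Test system: HT1080 RFP-PRO-GFP cells; Benchmarks: DMSO and RFP-L50D-GFP cell wells; Timing: cells overnight before dosing, compound overnight, 37 °C, 5% CO2; Compound: one 20 µM compound dose with 1% DMSO; Read-out: GFP/RFP fluorescence ratio.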
# CSC inhib: blocks cancer stem cells | cancer stem cell-like cells viability, luminescence | inhibition, % at 7.5 µM | 1.1% of 300,000 active | AID 2717;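 active = mean at 75% or more and at least half the replicates too; tested in HMLE shEcad cells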;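 also: 0% = median of negative and 100% = median of positive control wells; the first replicate is given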
# eIF4H FP inh retest: further read-out of eIF4H FP inh, marked with its call; inhibition, %; compound at 20 µM; confirmation average;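 mean of two retest wells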
# PABP polyA inh retest: second read-out of PABP polyA inh, no call of its own (marks repeat the call); inhibition, %; compound at 20 µM; confirmation repeats;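 mean of two retest wells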
# MT1-MMP act inh RFP: second read-out of MT1-MMP act inh, no call of its own (marks repeat the call); RFP signal change, %; measured here: RFP expression control read;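 0 = vehicle wells; hits needed this value within 50% of zero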
# * marks the source's active call; other numbers are inactive results; i = inactive; . = not tested or not shown; + = active, no number; & = joins results of further samples.
SMILES,eIF4H FP inh,Yeast UUG start,PABP polyA inh,HIV Env fusion,Rce1 inh,MT1-MMP act inh,MT1-MMP act inh RFP,CSC inhib,others
O=C(Nc1ccccc1Oc1cccnc1)C1CCCN(Cc2ccc(F)cc2)C1 (stereo not drawn),12,-13,-2,-52,i,3,5,14,
Cc1ccc(-n2nc(C)c3c(C(=O)OCC(=O)N(C)C4CCS(=O)(=O)C4)cc(-c4ccccc4)nc32)cc1 (stereo not drawn),5,.,21,-19,.,-5,-5,8,
CC(=O)Nc1ccc(SCC(=O)NCC2(N3CCCCC3)CCCCC2)cc1,.,.,.,1,.,-2,3,1,
COc1ccc(-c2ccc(S(=O)(=O)n3nc(OC(=O)c4cccs4)cc3N)cc2)cc1,4,-16,6,-22,i,8,-2,7,
Cc1ccc(S(=O)(=O)N(C)c2ccc(OC(=O)c3ccc(=O)[nH]c3)cc2)cc1,-5,.,17,-1,i,-3,-5,53,
CCc1noc(C)c1C(=O)N(C)CC(=O)Nc1ccc(Cl)c(Cl)c1,.,.,.,6,i,-5,-2,3,
COc1cc(C(=O)NCc2ccccc2Cl)ccc1OCC(=O)N1CCOCC1,.,-13,.,2,.,4,4,.,
CN(CCOc1ccccc1)C(=O)C1CCC(=O)N(CCCN2CCOCC2)C1 (stereo not drawn),-30,12,-12,12,i,-8,-5,2,
CC1CCN(CC(O)CN2c3ccccc3Sc3ccccc32)CC1 (stereo not drawn),-3,3,-4,.,i,-11,-6,8,
COc1ccc(NC(=O)C2CCCO2)cc1 (stereo not drawn),3,-19,-5,-81,i,0,0,0,
Cc1nc(-c2ccc(Cl)cc2)sc1C(=O)CBr,-8,.,-13,i,i,1,6,0,
CC(=O)c1ccc(S(=O)(=O)N2CCC(c3nc4ccccc4[nH]3)CC2)cc1,-7,-16,10,-1,i,1,-2,-43,
Cc1c(NS(=O)(=O)c2ccc3c(c2)CCN3C(=O)C2CC2)c(=O)n(-c2ccccc2)n1C,-6,-11,0,-303,i,3,2,-2,
COc1ccc(OCCCC(=O)Nc2nc(-c3ccccn3)cs2)cc1,12,-34,1,-1,i,3,-8,20,
NS(=O)(=O)c1ccc(NC(=S)NCCc2ccccc2)cc1,11,.,6,-39,i,4,2,-6,
COc1ccc(-n2cc(-c3ccc(C)cc3)[n+]3c2SCC3)cc1,-3,.,-9,118*,i,-6,-29,25,
Cc1nonc1NC(=O)CSc1nnc(N)s1,-6,-18,7,-23,i,0,-1,-2,
O=C(CCCc1ccccc1)Nc1ccc(S(=O)(=O)N2CCOCC2)cc1,-4,9,3,23,i,8,-2,-16,
Cn1c(=O)n(C/C=C/c2ccccc2)c(=O)c2c1nc1n2CCCN1c1ccc(F)cc1,4,-2,6,26,i,11,-7,-11,
CC(C)[C@@H](N)C(=O)NCC1CCC(C(=O)N[C@@H](Cc2ccccc2)C(=O)O)CC1 (stereo partly drawn),2,-4,2,7,i,-3,1,-12,

# A portion from further up, as a working copy:
SMILES,eIF4H FP inh,Yeast UUG start,PABP polyA inh,HIV Env fusion,Rce1 inh,MT1-MMP act inh,MT1-MMP act inh RFP,CSC inhib,others
O=C(Nc1ccccc1Oc1cccnc1)C1CCCN(Cc2ccc(F)cc2)C1 (stereo not drawn),12,-13,-2,-52,i,3,5,14,
Cc1ccc(-n2nc(C)c3c(C(=O)OCC(=O)N(C)C4CCS(=O)(=O)C4)cc(-c4ccccc4)nc32)cc1 (stereo not drawn),5,.,21,-19,.,-5,-5,8,

# Following part.
SMILES,eIF4H FP inh,Yeast UUG start,PABP polyA inh,HIV Env fusion,Rce1 inh,MT1-MMP act inh,MT1-MMP act inh RFP,CSC inhib,others
CCC(C)[C@H](NS(=O)(=O)c1ccc(C)cc1)C(=O)N1CCC(C(=O)N2CCC(C(=O)OC)CC2)CC1 (stereo partly drawn),0,-10,2,.,i,3,2,-15,
O=c1[nH]c(C(Cl)Cl)nc2sc3c(c12)CCN(Cc1ccccc1)C3,78*,.,12*,-8,i,-9,2,-2,eIF4H FP inh retest=86*;PABP polyA inh retest=66*
Cc1ccc(OCCNC(=O)CNC(=O)c2ccc(C)c(C)c2)cc1,.,-12,.,6,i,2,3,.,
Cc1nnc(NC2(C(F)(F)F)C(=O)Nc3c2c(=O)n(C)c(=O)n3C)s1 (stereo not drawn),-2,-15,16,.,i,-8,2,-11,
Cc1ccc(S(=O)(=O)NC(=O)C2(C)CCN2C(=O)Cc2ccc(Cl)cc2Cl)cc1 (stereo not drawn),.,1,.,-25,.,7,13,.,
CC(=O)C[C@H]1c2cc(C(F)(F)F)ccc2S(=O)(=O)N1Cc1ccccc1,.,3,.,2,i,1,-1,5,
O=C(COC(=O)c1n[nH]c2ccccc12)c1ccc(F)c(F)c1,.,-17,.,-5,i,5,4,16,
C[C@@H](C(=O)NCc1ccccn1)[C@H]1C[C@]1(C)[C@H](NC(=O)OCc1ccccc1)c1ccccc1,6,-27,2,2,i,-1,0,-8,
CCOC(=O)c1oc2cccc(O)c2c1CN1CCOCC1,-9,-20,11,27,i,0,-8,-15,
COc1ccc(C(=O)Nc2ccnn2C2CCN(Cc3cnn(C)c3)CC2)cc1,4,-10,31,-22,i,2,4,3,
COc1ccc(OC)c(NC(=O)c2oc3ccccc3c2NC(=O)C2CC2)c1,-1,-19,2,.,i,0,2,-1,
COc1ccc(Oc2nc(-c3ccccn3)ncc2OC)cc1,-6,.,10,6,i,10,2,-11,
COC(=O)c1sc(NC(=O)COc2ccc(C)cc2)nc1C,0,-13,0,.,i,2,4,3,
COC(=O)c1cc(OC)c(OC)cc1NC(=S)Nc1cccc(C(C)=O)c1,-1,-7,18,-22,.,4,5,-2,
COc1ccc2nc(NC(=O)c3ccc([N+](=O)[O-])o3)sc2c1,11,-11,-3,-32,i,7,-8,75*,
Cc1cc(C)c(NC(=O)COc2cccnc2[N+](=O)[O-])c(C)c1,.,-17,.,1,.,-2,-2,.,
Cn1c(=O)c(C(=O)NCCCc2ccccc2)c(O)c2ccccc21,4,-4,13,16,i,-2,0,21,
COc1ccc(C2C(C#N)=C(C)NC3=C2S(=O)(=O)c2ccccc23)cc1 (stereo not drawn),-7,-23,-10,-60,i,7,4,-6,
CCCCN(CC)CCNC(=O)c1nn(-c2ccc(OC)cc2)c(=O)c2c1c1ccccc1n2C,-1,.,22,-1,i,-4,-5,-9,
Cc1ccccc1NC(=O)Cc1nc(COC(=O)c2cc(Br)ccc2O)cs1,.,-18,.,.,.,2,2,7,
COCCN1C=C(C(=O)OC)C(c2ccc(Cl)cc2)C(C(=O)OC)=C1,-11,.,-2,-14,i,-1,1,10,
O=S(=O)(c1cccs1)N1CN(Cc2ccc(Cl)cc2)c2nc3ccccc3nc21,-2,-23,-7,.,.,-4,-10,6,
O=S(=O)(c1ccccc1Cl)N1CCCC1c1nc(-c2ccc(Cl)cc2)no1 (stereo not drawn),-1,-1,-14,82*,i,7,-6,24,
NS(=O)(=O)c1ccccc1NC(=S)Nc1ccccc1S(N)(=O)=O,1,-12,-5,-19,i,1,6,5,
CCOC(=O)c1c(NC(=O)CC)sc(C(=O)NC2CCCC2)c1C,18,-9,0,-3,i,2,4,-8,
O=C(CC1CCCC1)Nc1cccc(Br)c1,-6,-1,2,7,i,-2,1,9,
Cc1c(C2(O)CCCCC2)[nH]c2ncccc12,.,-4,.,6,.,2,0,-1,
CN(N)c1nc(-c2ccccc2)nnc1C(F)(F)F,0,-18,-7,.,i,2,1,12,
O=[N+]([O-])c1ccc(CS(=O)(=O)N2CCN(c3ccccc3)CC2)cc1,5,-20,7,-1,i,1,-1,.,
O=C(c1ccco1)N1CCN(Cc2cccc3ccccc23)CC1,2,-15,-5,10,i,-4,-2,-7,
COc1ccc2cc(C(=O)NCC(=O)O)sc(=O)c2c1OC,-16,-28,-1,.,i,11,8,.,
COC(=O)C1=C(C)N(C)C(=O)NC1c1ccc([N+](=O)[O-])o1 (stereo not drawn),2,.,8,-2,i,-4,0,-20,
Oc1ccc2ccccc2c1CNc1ccc(Br)cc1,-8,.,2,6,i,.,.,31,
CN(C)c1ccc(/C=N/NC(=O)CNC(=O)c2ccc3c(c2)OCCO3)cc1,6,.,-8,4,+,3,5,-3,
CS(=O)(=O)N(CC(=O)N1CCCCCC1)c1cccc(F)c1,2,-7,0,0,i,2,1,-27,
Cc1cc(C(=O)CSc2ccc(Cl)cc2)cc(C)c1OC(=S)N(C)C,-4,-27,0,.,i,3,-3,25,
COc1ccc(OCc2nnc(SCC(=O)Nc3nnc(C4CC4)s3)n2C)cc1,17,-10,5,-1,i,0,-1,-5,
O=C(Nc1cccc(NC(=O)c2ccccc2Cl)c1)c1ccc([N+](=O)[O-])o1,16,-9,6,-27,i,-1,-15,44,
Cc1cc(C)n2nc(SCn3nnc4ccccc4c3=O)nc2n1,8,-9,0,.,i,-2,-2,15,
COc1ccccc1CC(=O)N1CCN(C(=O)c2ccco2)CC1,0,-9,0,-19,i,1,1,-1,
Cn1ccnc1SCC(=O)Nc1cccc(S(=O)(=O)N2CCCCCC2)c1,-7,.,0,12,i,5,7,.,
CCCC(=O)NNC(=O)Nc1ccccc1,2,7,1,.,i,12,16,-9,
CCOc1ccc(NS(=O)(=O)c2ccc3c(c2)n(C)c(=O)n3C)cc1,3,-9,-4,-4,i,4,-4,-16,
Cc1ccccc1N1CCN(C(=O)C2CCC(=O)N(C3CCCC3)C2)CC1 (stereo not drawn),-2,-9,6,-3,i,3,-3,.,
CCn1c(-c2ccccc2)c(C(=O)CC#N)c2ccccc21,4,-16,-2,18,i,-8,0,-11,
S=C1NCN(Cc2ccco2)CN1Cc1ccco1,0,-13,-9,-2,i,1,3,-4,
OCCOc1ccc(CN2CCCC(N3CCN(c4ccc(F)cc4)CC3)C2)cc1 (stereo not drawn),-10,-15,-2,10,i,-1,5,2,
O=C(NCC(=O)N(c1ccc(F)cc1)C(C(=O)NC1CCCCC1)c1ccncc1)c1ccco1 (stereo not drawn),-11,-8,7,-16,i,-3,0,-11,
O=C(Nc1ccc2c(c1)OCO2)C1CCCN(c2nc3ccccc3s2)C1 (stereo not drawn),-8,-3,-15,.,i,5,-5,-2,
O=C(CN1CCCC1)N/N=C/c1c(O)ccc2ccccc12,24,-29,5,5,i,-2,2,35,
CCCCN(C)Cc1cc(=O)oc2cc3c(cc12)CCCC3,3,.,7,1,i,-4,-2,4,
COC(=O)C1=C(C(=O)OC)[C@@H]2N(C)c3ccc(OC)cc3[C@@]23C[C@@H](C(=O)OC)N(C(=O)c2cccs2)C3=N1,-10,-14,2,.,i,-5,-1,-11,
COc1cc(Nc2c3ccccc3nc3ccccc23)cc(OC)c1OC,-3,17,12,-76,i,-1,-5,31,
O=C(CN1CCN(Cc2ccccc2)CC1)N=Nc1c(O)[nH]c2ccccc12,0,.,-6,-1,i,-3,-2,9,
COc1ccc(C)cc1NC(=O)CSCc1ccccc1C,-2,-12,12,16,i,2,1,1,
COc1ccc(/C=C\C(=O)c2c(O)ccc3c(C)cc(=O)oc23)cc1OC,6,-1,-18,.,i,-9,-17,37,
O=C(CCN1C(=O)COc2ccccc21)NCc1ccco1,0,-10,3,.,i,-2,2,-3,
CCOC(=O)c1ccccc1-c1cn2cc(Cl)ccc2n1,10,2,6,7,i,-1,-2,-3,
CC(C)NC(=O)N(C)C[C@@H]1Oc2ccc(NC(=O)Nc3ccc(C(F)(F)F)cc3)cc2CC(=O)N([C@H](C)CO)C[C@@H]1C,.,-2&22,.,-127,.,11,-1,.,
CCCN1CCC(NC(=O)CC2C(=O)NCCN2Cc2cccc(OC)c2)CC1 (stereo not drawn),-11,-21,10,2,i,-1,1,29,
COC(=O)CCc1nc2c(C#N)c(-c3ccc(Cl)cc3)ccn2n1,-7,2,8,4,i,2,5,-2,

# Not all compounds are listed; count on the stated rates, not on these rows.
